# Mtb growth: M. tuberculosis H37Rv growth inhibitors, H37Rv strain (AID 1626). 220,000 tested, 0.95% active. one-dose inhibition, % at 10 µM; IC50 in µM for titrated hits. M. tuberculosis H37Rv growth inhibition; higher % means a stronger effect;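 active = confirmed in a dose series; inconclusive = inhibition above 80% but not taken into the dose series; inactive = below 80% or under 30% at every dose of the series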;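 note: bacteria incubated seven days before Alamar blue readout; 0% = bacteria only wells and 100% = bacteria with antibiotic wells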
# Arbovirus inh: antivirals against arbovirus infection, primary screen, cell-based, full library, 10K replicate subset | arbovirus infection cell-based antiviral screen | inhibition, % at 10 µM | 200,000 tested, 0.37% active | AID 1251, 2008;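 active = inhibition from about 30%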;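 note: bluetongue infection of BSR cells; cell survival read as ATP light after 72 h; 0% = infected wells without compound and 100% = uninfected wells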
# Mtb bLac sens: beta-lactam sensitization of Mtb H37Rv, H37Rv. inhibition, % at 25 µM. M. tuberculosis H37Rv growth with meropenem, percent inhibition; hits of this screen are not shown here. AID 434955, 2010. 330,000 tested, 0.27% active;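 active = about 74% or more and at least 40 points above the plate without the antibiotic, then above 30% in a dose series; inconclusive = first-round hits that could not be retested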;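 note: growth measured after seven days incubation then overnight dye step; 0% = bacteria only wells and 100% = bacteria with antibiotic; twin plates without the antibiotic show which effects depend on it; some results filed as inactive read as strong as hits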
# YopH inh: YopH tyrosine phosphatase inhibitors, primary screen, biochemical, fluorescence Ex485/Em525; inhibition, %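 (about 10 µM by stock and volumes)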; 140,000 tested, 0.16% active; AID 898, 2007; YopH tyrosine phosphatase [Yersinia enterocolitica];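 active = inhibition of 50% or more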;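 note: controls were vehicle for no effect and minimum signal wells for full effect; inactives centre near -20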
# RecA intein inh: Mtb RecA intein splicing inhibitors, primary screen, biochemical, fluorescence, HTS; Protein RecA (Mycobacterium tuberculosis (strain ATCC 25618 / H37Rv)), P9WHJ3; inhibition, %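 (about 9 µM by stock and volumes)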; cell-free RecA intein splicing; AID 2221, 2009; 290,000 tested, 0.75% active; in the data active = inhibition above about 30%; inconclusive = no clear call, values can overlap the other calls;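 note: 0% = vehicle wells and 100% = reference inhibitor control wells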
# Target sequence (P9WHJ3 whole entry, looked up): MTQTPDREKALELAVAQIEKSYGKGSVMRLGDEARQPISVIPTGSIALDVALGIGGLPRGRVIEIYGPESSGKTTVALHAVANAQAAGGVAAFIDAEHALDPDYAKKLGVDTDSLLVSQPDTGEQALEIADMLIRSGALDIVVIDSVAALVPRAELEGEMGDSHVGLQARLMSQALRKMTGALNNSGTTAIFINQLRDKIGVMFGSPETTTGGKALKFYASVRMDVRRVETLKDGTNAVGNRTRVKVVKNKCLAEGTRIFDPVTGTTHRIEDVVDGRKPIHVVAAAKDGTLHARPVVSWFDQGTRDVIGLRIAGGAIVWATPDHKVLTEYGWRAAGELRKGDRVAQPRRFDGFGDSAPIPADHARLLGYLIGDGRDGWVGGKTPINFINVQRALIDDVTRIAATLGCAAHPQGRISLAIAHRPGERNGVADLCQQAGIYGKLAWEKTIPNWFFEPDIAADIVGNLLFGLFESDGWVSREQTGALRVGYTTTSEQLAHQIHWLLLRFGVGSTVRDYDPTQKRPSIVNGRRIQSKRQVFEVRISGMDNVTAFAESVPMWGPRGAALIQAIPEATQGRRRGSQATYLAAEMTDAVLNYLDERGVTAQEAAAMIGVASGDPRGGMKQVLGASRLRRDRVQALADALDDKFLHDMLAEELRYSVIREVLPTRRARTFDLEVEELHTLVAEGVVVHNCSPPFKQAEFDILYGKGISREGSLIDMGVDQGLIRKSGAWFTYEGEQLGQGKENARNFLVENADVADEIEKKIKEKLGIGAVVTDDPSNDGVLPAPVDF
# Arbovirus inh repeat: recorded beside Arbovirus inh, whose call it bears; inhibition, %; measured here: 10K subset replicate screen; many hits read low in the repeat;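 first of two repeat runs on a subset; 0% = infected and 100% = uninfected wells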
# The depositor's hits bear a star; ? = inconclusive; · = not tested or not shown. A portion of the library (hit frequency here may not be typical).
SMILES,Mtb growth,Arbovirus inh,Mtb bLac sens,YopH inh,RecA intein inh,others
CCOC(=O)C1CN(S(=O)(=O)c2ccc(C)cc2)CCN1S(=O)(=O)c1ccc(C)cc1 (centres undefined),-8%,-1,-3,-7,4.2,
CCN(CC(=O)NCc1cccs1)C(=O)c1cc(S(=O)(=O)N2CCOCC2)ccc1C,-2%,9,-10,-16,0.8,
Nc1ccnn1Cc1ccc(Br)s1,6%,3,8,-27,-3.5,
OCCOCCn1c(C(CO)Nc2nc(-c3ccccc3Br)cs2)nc2ccccc21 (centres undefined),-3%,·,3,·,5.7,
CCOC(=O)c1nnc(-c2ccccc2)nc1Sc1c(Cl)cccc1Cl,17%,-41,5,-20,54*,
COc1ccc(NS(=O)(=O)c2ccc3oc(=O)c4[nH]c(=O)c(=O)n(C)c4c3c2)cc1,·,·,-3,·,-1.0,
CCCOc1ccc(N2CC(C(=O)Nc3ccccn3)CC2=O)cc1 (centres undefined),-4%,1,97,-28,1.5,
COc1cc(S(=O)(=O)Nc2ccc(C)cc2)ccc1NC(=O)c1ccncc1,5%,-8,-7,-17,1.0,
COc1ccc(OC)c(S(=O)(=O)N(C)CC(=O)N2CCOCC2)c1,·,·,2,·,5.2,
CC(NC(=O)c1ccccc1NC(=O)CN1CCc2ccccc2C1)c1ccccc1 (centres undefined),·,·,11,·,7.1,
COc1ccc(C(=O)CCN2CCN(c3ccccc3F)CC2)cc1,80%,-31,95,·,1.4,
CCCc1nc2ccccc2c(=O)n1CCc1ccccc1,·,·,3,·,5.8,

# In the list so far, these have a thiophene ring, fused or not:
SMILES,Mtb growth,Arbovirus inh,Mtb bLac sens,YopH inh,RecA intein inh,others
CCN(CC(=O)NCc1cccs1)C(=O)c1cc(S(=O)(=O)N2CCOCC2)ccc1C,-2%,9,-10,-16,0.8,
Nc1ccnn1Cc1ccc(Br)s1,6%,3,8,-27,-3.5,

# Further compounds.
SMILES,Mtb growth,Arbovirus inh,Mtb bLac sens,YopH inh,RecA intein inh,others
Cc1ccc(CNC(=O)CN(Cc2cccs2)C(=O)C2(C)CC(=O)N=C3C=CC=CN32)cc1 (centres undefined),-2%,4,0,-24,0.2,
O=C1NC(=O)C(=Cc2ccccc2Oc2ccc(F)cc2)C(=O)N1,-4%,-2,·,·,·,
COC(=O)COc1ccc(=O)n(-c2ccccc2)n1,-3%,2,-1,-23,-0.4,
Cc1nc(SCc2ccc(Cl)c(Cl)c2)n[nH]1,·,·,1,·,2.2,
O=CN1CCN(C(=O)c2ccccc2Cl)CC1,·,3,-1,-5,-1.6,
O=C(NCc1cc(C(F)(F)F)cc(C(F)(F)F)c1)C1CC(c2cccc([N+](=O)[O-])c2)=NO1 (centres undefined),-5%,-2,-3,-17,-4.8,
N#C/C(=C\Nc1ccc2cn[nH]c2c1)c1nc(-c2ccccc2)cs1,-2%,-21,·,·,-4.0,
C=C1C(O)C[C@H]2C(=C)CCC3[C@H](OC(=O)[C@]3(O)CO)[C@@H]12 (some centres undefined),-11%,-1,-9,-4,-2.4,
Nc1ccc(N2CCN(Cc3ccccc3Cl)CC2)c(Cl)c1,-3%,-11,0,-5,2.3,
CCOC(=O)C1CCCc2c1[nH]c1c(C(=O)O)cccc21 (centres undefined),-7%,13,17,-46,-0.7,
Cn1nnnc1SCCNCc1cccc2ccccc12,-3%,-1,-1,-28,-4.1,
CC(C)=CCC12Oc3cc(O)ccc3C1(O)Oc1cc3c(c(O)c1C2=O)C=CC(C)(C)O3 (centres undefined),-7%,·,-4,·,11,
COc1ccc(-c2noc3c2-c2nc(-c4c(F)cccc4F)sc2CC3)cc1,·,·,15,·,1.0,
Clc1cccc(Nc2nc(-c3ccncc3)nc3ccccc23)c1,-3%,·,-4,·,·,
C=CCNc1nc(Nc2ccccc2F)nc(OCC)n1,9%,1,-9,·,-2.3,
CCOC(=O)C1=C(C)N(c2nonc2NC(C)=O)C(N)=C(C#N)C1c1ccccc1F (centres undefined),-1%,1,-4,-27,1.1,
COc1ccc(S(=O)(=O)NCc2cccnc2)c2ccccc12,·,·,-2,·,-2.7,
S=C(NC1CCCCC1)N1CCOCCOCCN(C(=S)NC2CCCCC2)CCOCC1,9%,·,-8,·,8.4,
Cc1ccc(S(=O)(=O)N(C)C)cc1NC(=O)C1CCCN(C(=O)c2ccc(Cl)cc2)C1 (centres undefined),·,·,-7,·,0.8,
O=C(CN(C(=O)c1csnn1)c1cccc2c1CCCC2)NCc1ccccc1,·,·,-6,·,-0.9,
CCOC(=O)c1ccc(N2C(=O)CC(Sc3nc(O)c(CC)c(=O)[nH]3)C2=O)cc1 (centres undefined),-1%,4,-9,-85,0.8,
O=C(NCC(=O)N(c1cccnc1)C(C(=O)NC1CCCC1)c1cccs1)c1cccs1 (centres undefined),-4%,5,2,·,-1.8,
CC(C)CCC(C(=O)O)C(C)CC(=O)Nc1ccn(-c2ccccc2)n1 (centres undefined),-25%,·,-2,·,4.4,
O=C(N=c1nc2ccccn2s1)c1ccccc1,·,-8,5,·,4.0,Arbovirus inh repeat=1
Cn1nc(-c2ccc(Cl)cc2)cc1NC(=O)Nc1ccccc1,0%,·,-4,·,-0.1,
O=C(Nc1cccc(-c2cccc(Cl)c2)c1)C1CCN(Cc2ccc(CO)o2)CC1,·,·,?,·,4.5,
COc1ccc(/C=C(\NC(=O)c2ccccc2)C(=O)NC2CCS(=O)(=O)C2)cc1 (centres undefined),2%,·,1,·,-1.9,
COCCN(C(=O)COC(=O)CSc1ccccc1)c1c(N)n(Cc2ccccc2)c(=O)[nH]c1=O,·,·,-10,·,-3.0,
C/C(=N/NC(=O)c1cc(-c2ccccc2)nc2c(Cl)cccc12)c1cccnc1,·,·,2,·,-1.1,
COC(=O)c1ccccc1NC(=S)N1CCOCC1,·,·,-1,·,-0.7,
CCOC(=O)c1cnc(Nc2nc3ccccc3o2)nc1CSC(=S)N1CCCCC1,39%,-28,93,-27,-1.6,
Oc1ccc(Cl)cc1CNCC1CCCO1 (centres undefined),1%,7,-2,-47,11,
c1ccc(-c2nnc(CN3CCCc4ccccc43)o2)cc1,1%,-1,24,8,-3.4,
N#Cc1nc(Cl)c(Cl)c(NN)c1Cl,-9%,·,-3,·,-0.3,
Cc1ccc(-n2c(CNc3ccc(F)cc3)nnc2SCC(=O)N2CCCC2)cc1,1%,6,-15,-24,2.2,
CC(=O)Nc1ccc(SCC(=O)c2cc(C)n(-c3ccccc3F)c2C)cc1,8%,-6,5,-31,-1.0,
CCN1C(=O)c2cccc3c(S(=O)(=O)Nc4ccccc4O)ccc1c23,·,·,-7,·,-5.0,
CC(=O)c1ccc(S(=O)(=O)Nc2ccc(-c3ccc4nncn4n3)cc2)cc1,·,·,-1,·,-3.1,
CC1CN(C(=S)Nc2cccc(Cl)c2)CC(C)O1 (centres undefined),·,·,1,·,-1.0,
C[C@@H]1[C@@H](Sc2ccccc2)CC(=O)O[C@@H]1c1ccc(-c2ccccc2)cc1,-12%,·,-9,·,5.3,
COc1cccc(-c2n[nH]c3c2CCC3)c1,14%,-11,83,·,-1.9,
Cc1cc(C)nc(NC(=NCCc2c[nH]c3ccccc23)NC(=O)Nc2ccc(Cl)cc2)n1,29%,25,5,5,0.3,
COc1cc(OC)c(C(=O)Nc2ccncc2)cc1OC,·,·,0,·,-2.6,
CC1CCCCC1NC(=O)COC(=O)c1ccc(N(C)C)cc1 (centres undefined),2%,-1,-9,-10,2.2,
COc1ccc(CNC(=O)[C@@H](NC(=O)C2CCN(S(=O)(=O)c3ccccc3)CC2)C(C)C)cc1,·,·,-4,·,2.4,
CN(CC(=O)Nc1cccc(F)c1)C(=O)COc1cccc2c1OC(C)(C)C2,·,·,-13,·,-1.1,
Cc1cc(N2CCCC2)nc2ccc(NC(=S)NCCCN3CCC(C)CC3)cc12,-2%,-33,0,·,-6.9,
O=C(NC1CCCCC1)C(c1cccs1)N(C(=O)c1ccccn1)c1ccccc1 (centres undefined),4%,2,-3,-44,1.5,
CC1CCN(C(=O)CCc2ccc(Oc3cc([N+](=O)[O-])cc([N+](=O)[O-])c3)cc2)CC1,72%,-11,98,-22,17,
COc1ccccc1OCc1nc2ccccc2s1,8%,1,-2,-13,3.2,
NC(=O)c1cnn(Cc2ccc(Cl)cc2)c1N,-9%,3,18,-30,0.1,
COc1ccc(S(=O)(=O)N2CCN(Cc3ccc4c(c3)OCO4)CC2)cc1F,·,·,0,·,4.8,
O=C(O)c1ccccc1-c1ccccc1C(=O)NCc1ccccc1Cl,·,·,-9,·,-1.1,
Cc1ccn2cc(-c3cccc(NC(=O)C(C)C)c3)nc2c1,8%,-5,0,·,·,
Cc1cnc(NC(=O)CSc2nnc(-c3ccc(Cl)cc3Cl)n2N)s1,3%,-2,4,-24,·,
COc1cc2c(cc1OC)C(C)N(C(=O)C1=NN(c3cccc(C)c3)C(=O)CC1)CC2 (centres undefined),·,·,0,·,0.5,
CC(=O)NCCSCCNC(C)=O,-11%,0,5,-28,-3.3,
NC(=O)C1CC=CCC1C(=O)OCC(Cl)=C(Cl)Cl (centres undefined),-14%,10,-8,-23,-4.3,
CN(C)c1ccc(C(=O)Nc2ccc(S(=O)(=O)NC3=NCCCCC3)cc2)cc1,2%,12,2,-18,3.8,Arbovirus inh repeat=2
CN(C)CCCNC(=S)N1CCC(c2nc3ccccc3[nH]2)CC1,·,·,-1,·,-2.1,
# More records follow.
SMILES,Mtb growth,Arbovirus inh,Mtb bLac sens,YopH inh,RecA intein inh,others
Cc1ccc(NC(=O)c2cc(S(=O)(=O)N(C)C)ccc2N2CCCC2)cc1F,·,·,-8,·,4.9,
COCCNC(=O)c1ccccc1NS(=O)(=O)c1ccc(C)c([N+](=O)[O-])c1,6%,3,-8,-5,-1.5,
CC(C)N1CC(COc2ccc(Cl)cc2Cl)OC1=O (centres undefined),·,·,-7,·,1.7,
COC(=O)c1ccc(C(=O)Nc2nnc(-c3cccnc3)o2)cc1,-6%,-2,82,·,-2.3,
CCCC(CCC)C(=O)Nc1cccc(-c2cn3c(n2)SCC3)c1,·,·,-7,·,0.4,
CCOCCCNC(=O)C(c1ccc(C)cc1)N(Cc1cccs1)C(=O)c1ccccc1O (centres undefined),7%,3,2,·,-0.2,
Cc1ccc(-c2nn(-c3ccccc3)cc2C2SCC(=O)N2Cc2ccccc2)o1 (centres undefined),15%,13,3,-34,2.0,Arbovirus inh repeat=4
Cc1ccc2nc(NC(=O)CN3CCN(c4ccccn4)CC3)sc2c1,·,·,3,·,0.0,
COc1cc(C(=O)NCCOc2ccccc2C)c(Br)c(OC)c1OC,3%,9,0,-16,1.2,
C/C(=N\NC(=O)c1ccc(CSc2nncn2C)cc1)c1ccc2ccccc2c1,7%,1,-1,-10,-1.6,
Nc1nonc1-n1nnc(C(=O)N/N=C/c2ccc(OCc3ccccc3F)cc2)c1CNc1ccccc1,·,·,0,·,-1.7,
Cc1ccc(NS(=O)(=O)c2ccc3oc(=O)ccc3c2)cc1Cl,·,·,-3,·,0.6,
CC1(C)CC(=O)C2=C(C1)N(c1ccc(F)cc1)C(N)=C(C#N)C2c1cccs1 (centres undefined),10%,0,-3,-7,5.0,
CN(CCO)S(=O)(=O)c1ccc2c(c1)C(=O)c1cc(S(=O)(=O)N(C)CCO)ccc1-2,·,·,-3,·,7.3,
Cc1ccc(NC(=O)CCS(=O)(=O)c2cc3[nH]c(=O)c(=O)[nH]c3cc2C)cc1,·,·,0,·,-3.2,
CCn1cc(C(=O)NCc2ccccc2)c(=O)c2cc(F)c(N3CCN(C(=O)c4ccco4)CC3)cc21,?,7,99,9,-0.2,
O=C(NCc1cccs1)C1CCC(CNS(=O)(=O)c2ccccc2)CC1 (centres undefined),-2%,1,-1,·,-1.5,
N#Cc1cc2c(nc1SCc1cccnc1)CCC2,-6%,-1,22,-38,-2.6,
CC(=O)c1ccc2c(c1)OCCOCCOCCOCCO2,-1%,·,-5,·,-1.2,
CCSc1nnc(NC(=O)c2nn(C(C)C)c(=O)c3ccccc23)s1,-3%,8,69,-6,1.8,

# 3 compounds picked at random from those above:
SMILES,Mtb growth,Arbovirus inh,Mtb bLac sens,YopH inh,RecA intein inh,others
CCSc1nnc(NC(=O)c2nn(C(C)C)c(=O)c3ccccc23)s1,-3%,8,69,-6,1.8,
CN(CCO)S(=O)(=O)c1ccc2c(c1)C(=O)c1cc(S(=O)(=O)N(C)CCO)ccc1-2,·,·,-3,·,7.3,
O=C(NCc1cccs1)C1CCC(CNS(=O)(=O)c2ccccc2)CC1 (centres undefined),-2%,1,-1,·,-1.5,
